Screening results (PubChem BioAssay)
Prx2 Sm inh: blocks S. mansoni peroxiredoxin 2 enzymatic activity | AID 448 | Potency, µM | S. mansoni Prx2 activity coupled to TGR/GSH (TGR is thioredoxin glutathione reductase), NADPH fluorescence loss, qHTS; some inactives read as strong as hits | actives 0.07% (n = 65,000); active means full or partial inhibition curve with a strong effect at the top dose; inconclusive means weaker partial or single-point curve; inactive means no accepted curve; also: series up to 57 µM; many of its hits are not listed in these tables
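Prx2 inhibition was measured as reduced NADPH consumption when electrons flowed from NADPH through TGR and glutathione to Prx2 and H2O2. Plates were read kinetically over 8 min; enzyme reagents were held at 4 deg C during dispensing.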
LT uptake inh: inhibitors of anthrax lethal toxin internalization. Cells, anthrax lethal toxin internalization, FRET ratio (460/530). Potency, µM (series often up to 40 µM), for inactives: top-dose activity change, negative = inhibition, most hits filed as inhibitors. actives 0.67% (n = 70,000). AID 912; active = well fitted falling ratio curve with the 530 nm signal flat; inconclusive = other ratio curves, or a change in one channel alone; inactive = flat curves in the ratio and both channels; the % refers to the ratio; also: % is scaled to controls: 0 for no effect and ±100 for the full control effect; nearly all actives have a fitted effect of over 50% in size; tested in ME-180 cells; beta-lactamase reporter
* marks the source's active call; other numbers are inactive results; ? = inconclusive; / = no result given; & = joins results of further samples; [ ] = remark or other dose. Potency is read from the fitted curve at half-maximal effect. Not all compounds are listed; rates above refer to the full screens.

Values run as follows: LT uptake inh, Prx2 Sm inh
1. CC(CCC(=O)Nc1nncs1)C(=O)O (centres undefined)
    4.3%, >57
2. Cc1ccc2oc(=O)ccc2c1
    -13.3%, /
3. Cc1ccc(-c2nnn(CC(=O)Nc3cccc4c3CCCC4)n2)o1
    -6.2%, >57
4. CCc1c(C)nc2ncnn2c1N1CCC(C(=O)Nc2cccc(C(C)=O)c2)CC1
    15.7%, >57
5. COCCN(CC(=O)NCc1ccc(OC)cc1)C(=O)CCC(=O)Nc1nccs1
    5.5%, >57
6. Cc1nc(Nc2ccccc2)c2nc(-c3ccccc3)n(CCCN3CCCCC3C)c2n1 (centres undefined)
    ?, /
7. CCOC(=O)c1c(NC(=O)c2nn(CC)cc2Br)sc2c1CCCCC2
    ?, >57
8. O=C(CSc1nc2ccc(S(=O)(=O)N3CCOCC3)cc2[nH]1)N1CCOCC1
    -9.0%, >57
9. CC(C)CSc1nc2c(c(=O)[nH]c(=O)n2C)n1CC(O)COc1cccc2ccccc12 (centres undefined)
    -15.8%, >57
10. CC(C)(C)c1ccccc1OCCN1CCCC1
    ?, /
11. Cc1cc(C)c2c(n1)nn1c(NCCCN3CCOCC3)cc(C)nc21
    3.3%, >57
12. O=C(COC(=O)CNC(=O)c1ccc(Br)o1)Nc1ccc2c(c1)OCCO2
    ?, >57
13. CC1(C)CC(=O)C2=C(C1)Nc1ccccc1NC2c1nc2ccccc2[nH]1 (centres undefined)
    -5.0%, >57
14. Cc1cc(C(=O)NC(C)C)on1
    ?, >57
15. COc1ccc(OC)c(NC(=O)CSc2nnc(C)n2Cc2ccccc2)c1
    9.6%, >57
16. CCOC(=O)CCCNC(=O)COC(=O)c1cccc(C)c1O
    -0.7%, >57
17. Cc1nc2c(n1O)CCC/C2=N\O
    -22.9%, >57
18. Cc1cnc(C)c(N2CCC(C(=O)NCc3ccco3)CC2)n1
    0.0%, >57
19. CC(=O)Nc1cccc(C(=O)OCc2ccccc2)c1
    2.2%, >57
20. CC(C)CN1CCC2(CC1)CCN(C(=O)Oc1ccccc1)CC2
    16.0%, >57
21. COCCn1c(=O)[nH]c2cc(C(=O)N3CCN(c4ccccc4OC)CC3)ccc2c1=O
    11.4%, >57
22. C=CCn1c(SCC(=O)N2CCOCC2)nc2scc(-c3ccco3)c2c1=O
    -23.8%, >57
23. C[n+]1cc2c3c(ccc2c2ccc4cc5c(cc4c21)OCO5)OCO3
    ?, >57&>25.6
24. CN(C)c1ccc(NC(=O)CC2NCCNC2=O)cc1 (centres undefined)
    10.6%, >57
25. O=C(O)[C@@H](S)[C@H](S)C(=O)O
    -2.3%[8 µM], ?
26. CC(C)Oc1ccc(C2CC(=O)N(c3cccc(C(=O)O)c3)C2=O)cc1 (centres undefined)
    -11.1%, /
27. c1ccc2c(c1)CCCN2Cc1nnnn1CC1CCCO1 (centres undefined)
    ?, >57
28. CCc1nnc(NC(=O)CSc2nnc(COc3ccc(C#N)cc3)n2-c2ccccc2)s1
    2.2%, >57
29. Cc1nnc(SCc2cc(=O)[nH]c(N3CCN(Cc4ccccc4)CC3)n2)s1
    5.4%, >57
30. CCC(c1nnnn1Cc1ccc(F)cc1)N(CCCO)Cc1cc2cc3c(cc2[nH]c1=O)OCO3 (centres undefined)
    -0.7%, >57
31. COc1cccc(OC)c1C(=O)Nc1ccc(CN2CCCCC2)cc1
    11.4%, >57
32. CC(=O)N(C(C)=O)c1ccc2nc(C)[nH]c(=O)c2c1
    ?, >57
33. NC1=CC(=O)c2cccc3cccc1c23
    ?, >57
34. COc1cccc(NS(=O)(=O)c2cc(C)sc2C)c1
    -6.4%, >57
35. Oc1ccc(-c2nc(-c3ccc(O)c(O)c3)cs2)cc1
    12.6µM*, /
36. O=C(c1cnccn1)N1CCC2(CC1)CN(Cc1nccs1)C2
    -18.6%, >11.4
37. CCS(=O)(=O)N1CCN(C(=O)CC(C)C)CC1
    3.1%, >57
38. c1ccc(CSc2nnc3c(n2)OC(c2ccco2)Nc2ccccc2-3)cc1 (centres undefined)
    -5.1%, /
39. COC(=O)c1cc(OC)c(OCc2cc(C(=O)OC)oc2C)c(OC)c1
    11.2%, /
40. CCNc1ncc2nc(CCc3ccccc3)c(=O)n(C3CC3)c2n1
    ?, >57
41. CCOC(=O)c1c(C)c(C(=O)NCc2cccs2)c(C)n1CC
    -5.4%, >57
42. CC(Sc1nncs1)C(=O)NCc1ccc2c(c1)OCO2 (centres undefined)
    2.6%, >57
43. COc1ccc(CCN(Cc2nc3ccccc3c(=O)[nH]2)C(=O)c2ccco2)cc1OC
    2.3%, >57
44. O=C(CSc1nnc(-c2ccccc2Cl)o1)N1CCCCC1
    4.7%, >57
45. O=C(c1ccc(Cl)cc1)N1CCC(c2nc(-c3cccs3)no2)CC1
    -22.2%, >57
46. CCCc1c(OCCCCc2nn[nH]n2)ccc(C(C)=O)c1O
    ?, /
47. Cc1noc(N)c1C(=O)Nc1ccc(F)c(Cl)c1
    0.5%, >57
48. O=S(=O)(Nc1cccc2ccccc12)N1CCCC1
    -4.2%, >57
49. COC(=O)c1ccc(C(NC(=O)OCc2ccccc2)/C(C)=C/[C@@H](C)C(=O)N2CCN(C)CC2)cc1 (some centres undefined)
    13.6%, /
50. Cc1cc(C(=O)NCc2cc(C(=O)O)oc2C)c(C)o1
    -4.6%, >57
51. COC(=O)C1=C(C)N(c2ccc(F)cc2)C(=O)C1
    2.1%, /
52. COc1ccc(CCn2c(N3CCN(C)CC3)nc3c2c(=O)[nH]c(=O)n3C)cc1
    /, >57
53. CN(C)c1oc(-c2ccco2)nc1C#N
    8.9%, >57
54. C#CCSc1nnc(-c2ccccc2)c(=O)[nH]1
    ?, >57
55. COc1ccc(C(N)=O)cc1NC(=O)CC(O)(C(F)(F)F)C(F)(F)F
    -11.4%, >57
56. COc1ccc(OCC(=O)NCc2cccnc2)cc1
    4.1%, >57
57. O=C(COc1ccc(Cl)cc1)NCc1nnc(SCC(=O)NC2CCCC2)o1
    0.4%, >57
58. O=S(=O)(NCCSc1ccccc1)c1ccc(F)cc1
    -16.7%, >57
59. CC(C)CCNC(=O)CCS(=O)(=O)c1cccc2nonc12
    ?, >57
60. Cc1cc(C(=O)Nc2ccc(S(=O)(=O)Nc3onc(C)c3C)cc2)c(C)o1
    16.5%, >57

Grouped by structure: the compounds so far with a cyano group
Values run as follows: LT uptake inh, Prx2 Sm inh
28. CCc1nnc(NC(=O)CSc2nnc(COc3ccc(C#N)cc3)n2-c2ccccc2)s1
    2.2%, >57
53. CN(C)c1oc(-c2ccco2)nc1C#N
    8.9%, >57

(cont.)
Values run as follows: LT uptake inh, Prx2 Sm inh
61. COc1ccc(OC)c2c(=S)c3ccccc3[nH]c12
    ?, >57
62. COCCNC(=O)C(c1ccco1)N(C(=O)Cn1nnc2ccccc21)c1ccccc1C (centres undefined)
    12.2%, >57
63. Cc1ccc(S(=O)(=O)NCCSc2nnc(N)s2)cc1
    1.1%, >57
64. CCOC(=O)CNC(=O)Cn1cnc2ccc(S(=O)(=O)N3CCC(C)CC3)cc2c1=O
    8.7%, >57
65. CCOC(=O)Cc1csc(NC(=O)CN2C(=O)c3ccccc3S2(=O)=O)n1
    -1.4%, >57
66. Cc1cccc(NC(=O)CCn2ccnc2C)c1
    5.0%, >57
67. COc1ccc(CCN(Cc2cc3cc(C)ccc3[nH]c2=O)C(=O)N2CCCC2)cc1OC
    26.4%, >57
68. COC(=O)Nc1nc2ccc(C(=O)c3ccccc3)cc2[nH]1
    ?, >57
69. Cc1noc(C)c1-c1ccc2ncnc(N3CCOCC3)c2c1
    14.9%, >57
70. Cc1ccc(NC(=O)Cn2cnc3c(cnn3C(C)(C)C)c2=O)cc1
    2.1%, >57
71. Cc1ccc(S(=O)(=O)Cc2ccc(C(=O)N3CCN(c4ccc(F)cc4)CC3)o2)cc1
    ?, >57
72. CCOC(=O)N1CCN(C(=O)Nc2ccc3nc(-c4ccccn4)c(-c4ccccn4)nc3c2)CC1
    -4.7%, /
73. COC(=O)c1ccc(C)c(NC(=O)Cc2coc3cc(OC)ccc23)c1
    ?, >57
74. COCCn1c(N2CCN(c3ccc(OC)cc3)CC2)nc2c1c(=O)[nH]c(=O)n2C
    -5.3%, >57
75. CC(C)CNc1nc2ncnc(N)c2[nH]1
    -2.2%[8 µM], >57
76. Cc1ccsc1C1CC(=O)NC2=C1C(=O)CC(C)(C)C2 (centres undefined)
    -12.8%, >57
77. COC(=O)c1ccccc1NC(=O)CSc1n[nH]c(CC(C)C)n1
    -3.8%, >57
78. CN(C)c1ccc(-c2cc(-n3ccnc3)ncn2)cc1
    ?, >57
79. COC(=O)c1ccc(C(NC(=O)OCc2ccccc2)/C(I)=C/[C@@H](C)C(=O)NCc2ccncc2)cc1 (some centres undefined)
    3.2%, /
80. O=C(CSCc1ccccc1)Nc1nccs1
    -14.4%, /
81. CCOC(=O)c1c(NC(=O)COC)sc2c1CCCC2
    4.4%, >57
82. COC(=O)Nc1c(-c2ccccc2)nc2ccccn12
    5.1%, >57
83. COc1ccc(NC(=O)CSc2ncn(-c3ccccc3)n2)cc1Cl
    18.2%, >57
84. c1ccc(CNn2nnnc2-c2ccccc2)cc1
    2.1%, >57
85. O=C1O[C@@H]([C@@H](O)CO)[C@@H](O)[C@H]1O
    2.6%[3.58 µM], >25.6
86. CCOC(=O)Nc1nnc(-c2ccccc2OC)s1
    -7.2%, >57
87. Cc1ccccc1CSc1nnc(Cn2c(=O)sc3ccccc32)n1C
    -12.7%, >57
88. CO/C=C/C#CC1(O)CCN(C)CC1
    -6.9%, >57
89. CCOC(=O)CSc1nc2c(sc(=S)n2Cc2ccco2)c(=O)n1-c1ccccc1
    ?, >57
90. COc1ccc(CCNC(=O)c2cc3sccc3n2C)cc1OC
    -17.8%, >57

Reprinted from the part before: two entries, followed by the next part.
Values run as follows: LT uptake inh, Prx2 Sm inh
89. CCOC(=O)CSc1nc2c(sc(=S)n2Cc2ccco2)c(=O)n1-c1ccccc1
    ?, >57
90. COc1ccc(CCNC(=O)c2cc3sccc3n2C)cc1OC
    -17.8%, >57
91. O=C(C1CC1c1ccccc1)N1CCN(c2cccc(Cl)c2)CC1 (centres undefined)
    -20.0%, >57
92. Cc1cnc(C(=O)Nc2ccc(N3CCN(C(=O)OC(C)(C)C)CC3)cc2)cn1
    12.6%, >57
93. O=C(c1coc(=O)c2ccccc12)N1CCN(Cc2ccccc2)CC1
    -4.2%, >57
94. CCN(CC)S(=O)(=O)c1ccc(-c2nnc(SCC(=O)Nc3ccc4c(c3)OCO4)o2)cc1
    1.3%, >57
95. O=C1C2=CC[C@@H]3C(=O)N(c4ccc(F)cc4F)C(=O)[C@H]3[C@H]2[C@H](O)[C@H]2O[C@H]12
    ?, /
96. CCOC(=O)Cn1c(=N)n(CCOc2cccc(C)c2)c2ccccc21
    -3.5%, >57
97. O=C1CC(c2cccc(F)c2)C2=C(CCCC2=O)N1 (centres undefined)
    -2.5%, >57
98. COc1ccc(-c2nc(NC(=O)CSc3nnc(C)s3)ns2)cc1
    8.0%, >57
99. CCOC(=O)Cc1[nH]nc2c1C(C1C=CCCC1)C(C#N)=C(N)O2 (centres undefined)
    ?, >57
100. COc1ccc(OCCSc2nnc3sc4ccccc4n23)cc1
    1.8%, >57
101. [O-][Cl+2]([O-])O
    -6.0%, /
102. COc1ccc(C(=O)Nc2nc(C)c(C(=O)N(C)C)s2)cc1OC
    14.9%, >57
103. O=C(c1cn(-c2ccccc2)nc1-c1ccncc1)N1CCCCC1
    -1.7%, >57
104. O=C(Nc1nccs1)c1ccc(S(=O)(=O)N2CCCCC2)cc1
    -18.0%, >57
105. Cc1c(Cl)ccc2c1NC(=O)C21NC(CCC(N)=O)[C@H]2C(=O)N(c3ccc(Cl)cc3)C(=O)[C@H]21 (some centres undefined)
    -16.7%, >57
106. COc1ccc(OC)c(C2NC(=O)NC(C)=C2C(=O)Nc2ccc(C)cc2C)c1 (centres undefined)
    -9.3%, >57
107. COc1ccc(C2NCc3ccc4c(c3-n3cccc32)OCO4)cc1O (centres undefined)
    -3.6%, >57
108. c1nc(N2CCCCC2)c2[nH]cnc2n1
    -2.7%, >57
109. Cc1cccc2nc(CSc3nnnn3-c3ccccc3)cn12
    /, >57
110. O=C(NCCN1CCOCC1)N1CCOCC1
    -1.0%, >57
111. O=C(Nc1c(F)c(F)c(F)c(F)c1F)NC1CCCCC1
    0.7%, >57
112. CC1(C)Cc2c(C#N)c(N3CCCC3)nc(-c3ccco3)c2CO1
    ?, >57
113. Cc1csc(SCc2nc3sc4c(c3c(=O)[nH]2)CCC4)n1
    -3.6%, >57
114. O=C(c1ccc(Cl)cc1)c1nnc(-c2ccncc2)o1
    6.2%, >57
115. O=C(O)CCc1ccc(-c2ccccc2)n1CC1CCCO1 (centres undefined)
    4.6%, >57
116. Cc1c(N2C(=O)C(C)SC23C(=O)Nc2ccccc23)c(=O)n(-c2ccccc2)n1C (centres undefined)
    ?, >57
117. CN(C)C(=O)/N=N\C(=O)N(C)C
    ?, >57
118. CN(C)Cc1cc(C(F)(F)F)ccc1C(O)(c1ccccc1)c1ccccc1
    -21.9%[8 µM], >57
119. Cc1nnc(NC(=O)c2ccco2)s1
    -4.9%, >57
120. CCn1c(N)c(C(=O)NC2CCCCC2)sc1=S
    -13.8%, >57
121. COc1cc(-c2nnc3sc(-c4ccncc4)nn23)cc(OC)c1OC
    -19.6%, >57
122. CC(C)n1c(-c2ccco2)csc1=Nc1cccnc1
    -20.0%, >57
123. COc1cc(OC)cc(C(=O)NCc2cccnc2)c1
    /, >57
124. Cc1ccc(S(=O)(=O)NCc2ccncc2)cc1
    -3.1%, >57
125. CC(=O)c1cc2c(cc1NS(=O)(=O)c1ccc3c(c1)OCCO3)OCO2
    -7.4%, >57
